MT1-MMP act inh: blockers of MT1-MMP proenzyme processing, primary screen, HT1080 RFP-PRO-GFP cells, GFP/RFP fluorescence | GFP/RFP ratio change, % at 20 µM | 360,000 compounds, 0.061% hits | GFP/RFP ratio fluorescence, overnight; percent of plate control window, DMSO zero | AID 651647, 2012 | Matrix metalloproteinase-14 (Homo sapiens), P50281;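 active = GFP/RFP ratio change of at least 30% with cell ATP level not reduced by more than half and red fluorescence within 50% of control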; also: strong numbers were not always called active
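Material – HT1080 RFP-PRO-GFP cells · Control set – DMSO wells and RFP-L50D-GFP cells · Incubation – overnight cell settling, then overnight compound exposure, 37 °C, 5% CO2 · Compound dosing – single-point 20 µM compound, 1% DMSO · Read-out – GFP/RFP fluorescence ratio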
PABP FP inh: PABP poly(A) RNA binding inhibitors, primary screen, biochemical, fluorescence polarization, uHTS. Polyadenylate-binding protein 1 (Homo sapiens), P11940. inhibition, % at 35 µM. 290,000 compounds, 1% hits. AID 2014, 2009;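 active = 50% or more with normal probe brightness, or confirmed in later tests; about a fifth of its hits are not listed in these tables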;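 also: calls also rest on retests at 20 µM and on dose response follow-up; controls were probe without protein and protein plus probe with vehicle; some compounds called inactive have numbers as strong as hits; many hits fall short of the cut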
Target sequence (P11940 whole entry, looked up): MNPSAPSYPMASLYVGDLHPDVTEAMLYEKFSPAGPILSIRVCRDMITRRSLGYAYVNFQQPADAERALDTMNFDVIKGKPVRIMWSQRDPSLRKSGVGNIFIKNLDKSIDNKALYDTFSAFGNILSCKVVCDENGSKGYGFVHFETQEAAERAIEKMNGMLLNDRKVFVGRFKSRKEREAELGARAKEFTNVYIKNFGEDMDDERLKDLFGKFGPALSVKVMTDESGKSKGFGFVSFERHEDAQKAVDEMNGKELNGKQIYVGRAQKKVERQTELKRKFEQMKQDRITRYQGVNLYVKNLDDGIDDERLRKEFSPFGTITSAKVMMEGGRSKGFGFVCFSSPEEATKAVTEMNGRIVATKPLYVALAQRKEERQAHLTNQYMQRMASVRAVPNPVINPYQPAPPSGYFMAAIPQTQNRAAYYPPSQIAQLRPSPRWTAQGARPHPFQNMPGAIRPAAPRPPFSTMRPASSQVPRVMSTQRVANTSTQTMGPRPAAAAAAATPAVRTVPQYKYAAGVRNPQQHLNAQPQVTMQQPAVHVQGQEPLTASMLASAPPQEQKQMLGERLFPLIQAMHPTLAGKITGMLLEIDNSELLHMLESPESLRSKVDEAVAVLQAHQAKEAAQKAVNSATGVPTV
CSC inhib: cancer stem cell viability inhibitors, primary screen, luminescence | cancer stem cell-like cells viability | inhibition, % at 7.5 µM | 300,000 compounds, 1.1% hits | AID 2717, 2010;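 active = mean at 75% or more and at least half the replicates too; tested in HMLE shEcad cells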;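 also: 0% = median of negative and 100% = median of positive control wells; the first replicate is given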
Yeast UUG start: modulators of yeast start codon fidelity, primary screen, whole organism, S. cerevisiae, single point, plate reader. S. cerevisiae UUG-firefly luciferase reporter, luminescence/redox ratio. activity score, % at 18.7 µM. 350,000 compounds, 0.13% hits;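 active = replicate mean at a twofold rise or more, about +100% in these data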;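 also: firefly luciferase made from a UUG start codon reports start codon fidelity; reporter light over untreated wells divided by growth signal over untreated wells; some hits fall short of that in this replicate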
Rce1 inhib: yeast Rce1p protease inhibitors, primary screen, biochemical, fluorescence, cell-free homogeneous; CAAX prenyl protease 2 (Saccharomyces cerevisiae (strain ATCC 204508 / S288c)), Q03530; yeast membranes, quenched prenylated peptide cleavage fluorescence; calls only; 290,000 compounds, 0.27% hits;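 active = fall in fluorescence gain of 50% or more versus controls, with final raw signal at or below 3038400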;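 also: plate controls were neutral control wells for no effect and wells lacking membranes for full effect; tested at 10 µM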
Target sequence (Q03530 whole entry, looked up): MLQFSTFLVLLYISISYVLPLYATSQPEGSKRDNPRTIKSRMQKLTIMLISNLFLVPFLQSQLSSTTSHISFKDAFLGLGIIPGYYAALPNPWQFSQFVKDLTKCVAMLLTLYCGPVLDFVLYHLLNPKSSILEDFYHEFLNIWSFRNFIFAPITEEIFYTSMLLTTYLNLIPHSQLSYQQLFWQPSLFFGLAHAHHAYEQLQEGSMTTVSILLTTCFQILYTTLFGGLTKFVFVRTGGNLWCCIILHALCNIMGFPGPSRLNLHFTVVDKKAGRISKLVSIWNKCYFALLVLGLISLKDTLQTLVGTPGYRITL
eIF4H FP inh: human eIF4H binding inhibitors, primary screen, translation initiation inhibitor project, biochemical, uHTS, fluorescence polarization. Eukaryotic translation initiation factor 4H (Homo sapiens), Q15056. eIF4H fluorescence polarization binding assay. inhibition, % at 35 µM. 290,000 compounds, 0.94% hits;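 active = 50% or more with normal probe brightness, or confirmed in later tests; about a fifth of its hits are not listed in these tables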;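 also: calls also rest on retests at 20 µM and on dose response follow-up; 0% = protein and probe with vehicle and 100% = probe without protein; strong numbers were not always called active; many hits fall short of the cut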
HIV Env fusion: inhibitors of HIV-1 Env-driven cell-cell fusion, primary screen, HeLa-JRFL effector, CEM21 target cells, luciferase | inhibition, % at 12.3 µM | 360,000 compounds, 1.1% hits;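 active = mean replicate inhibition score of at least 50 and every replicate individually at or above 50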;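 also: 0% = plate neutral controls and 100% = maraviroc near 300 nM; one replicate is shown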
MT1-MMP act inh RFP: also measured in MT1-MMP act inh; calls as there; RFP signal change, %; measured here: RFP expression control read;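 0 = vehicle wells; hits needed this value within 50% of zero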
* marks the source's active call; other numbers are inactive results; i = inactive; . = no result given. The order is random; 3% or so of the library scored in one or more.

SMILES | MT1-MMP act inh | MT1-MMP act inh RFP | PABP FP inh | CSC inhib | Yeast UUG start | Rce1 inhib | eIF4H FP inh | HIV Env fusion
C=CCNc1nc2ccccc2nc1NS(=O)(=O)c1ccc(OC)cc1 | -3 | -2 | 10 | 4 | -10 | i | 8 | 0
CCOc1ccc(Nc2nc(Cl)nc(NCCO)n2)cc1 | 2 | 3 | -5 | . | . | i | 0 | 5
COc1ccc(NC(=O)CC2C(=O)N(C)C(=S)N2CCc2ccccc2F)cc1 (centres undefined) | 3 | -8 | -3 | 8 | . | i | 6 | 5
Cc1cc(C)c2c(=O)[nH]c(SCc3ccc([N+](=O)[O-])cc3)nc2n1 | 2 | 2 | -10 | -3 | . | . | -10 | -2
O=C(NCc1ccccn1)c1cc(-c2ccncc2)nc2ccccc12 | -1 | 5 | . | . | . | i | . | -26
Clc1ccccc1Nc1nc2ccccc2o1 | 0 | 4 | . | 17 | -11 | . | . | -66
Nc1nc(SCC(=O)Nc2cc(C(F)(F)F)ccc2Cl)[nH]c(=O)c1NC(=O)c1ccco1 | 0 | 2 | 3 | 7 | -15 | i | 5 | 9
CC(=O)c1cc(-c2ccccc2)[nH]c1N1CCOCC1 | -19 | 14 | 2 | 7 | -10 | i | 12 | .
CCOc1cc(C(=O)N2CCC(CC3CC(c4ccccc4)=NO3)(C(=O)NCc3ccc(OC)cc3)CC2)cc(OCC)c1OCC (centres undefined) | 6 | -3 | . | 4 | 11 | i | . | 41
Oc1ccc2ccccc2c1CN1CCCC1 | 0 | 4 | 6 | -6 | -4 | i | -3 | -6
COc1ccc(C(=O)Nc2cccnc2)cc1 | 4 | 3 | 11 | -8 | -25 | i | 3 | .
CCCOc1ccc(/C(O)=C2/C(=O)C(=O)N(CCCOC)C2c2cccnc2)cc1 (centres undefined) | -1 | 2 | 26 | 1 | -4 | i | 1 | .
NNC(=S)NCCc1ccccc1 | -2 | 4 | 1 | 6 | -33 | i | -8 | 0
O=S(=O)(c1cccs1)N1CN(Cc2ccccc2)c2nc3ccccc3nc21 | 6 | 0 | 0 | 11 | . | i | 11 | .
CC(C(=O)NCCCN1CCOCC1)n1cccc1C(=O)c1ccccc1 (centres undefined) | -2 | 0 | -6 | . | -16 | i | 18 | .
O=C1CCCN1CCC(=O)N1CCCC(CO)(Cc2ccccc2)C1 (centres undefined) | 4 | 4 | 5 | 8 | -13 | i | -2 | -40
CCN(CC)c1ncnc2c1cnn2C | 8 | 2 | 7 | -5 | -22 | i | -3 | 2
O=C(Nc1nccs1)c1ccc(COc2ccccc2)o1 | 3 | 1 | -11 | 8 | 0 | i | -1 | -36
CN(O)C(=O)Nc1ccc([N+](=O)[O-])cc1 | 3 | 1 | -11 | 5 | . | i | -2 | 1
CSc1nc(C)c(Cc2c(F)cccc2Cl)c(=O)[nH]1 | 2 | 0 | -6 | -8 | -24 | i | -12 | -11
COc1ccccc1Nc1nnc(SCC(=O)N2CC(=O)Nc3ccccc32)s1 | 1 | 1 | -9 | -17 | 3 | i | -3 | 0
COc1ccc(NC(=O)CSc2nc3ccsc3c(=O)n2Cc2ccccn2)c(OC)c1 | 4 | 4 | -1 | -6 | . | . | 3 | -4
CC(C)(C)NC(=O)CN(Cc1ccc2c(c1)OCO2)C(=O)CNC(=O)c1cccs1 | . | . | -14 | 0 | . | i | -9 | .
O=C(O)CC(Cc1ccccc1)c1ccc2c(c1)OCO2 (centres undefined) | 2 | 6 | -9 | 12 | -2 | i | -2 | 9
Cc1cccc(-c2c3c(=O)n(C)c(=O)n(C)c3cn2C2CCCCC2)c1 | -17 | -3 | -4 | 58 | -17 | i | -12 | -71
NC(=O)c1c(NC(=O)C2CCCO2)sc2c1CCC2 (centres undefined) | 1 | 1 | 11 | -10 | -14 | i | 7 | -17
CC1(C)CC(c2nc(-c3ccc(Br)cc3)cs2)CCS1 (centres undefined) | 1 | -2 | -5 | 12 | . | i | -6 | -6
O=C(CCS(=O)(=O)c1cccc2nonc12)N1CCCc2ccccc21 | 0 | 2 | 5 | -17 | -8 | i | -4 | -6
CC1(C(=O)NS(=O)(=O)c2ccccc2)CCN1C(=O)Cc1cccc2ccccc12 (centres undefined) | -2 | 3 | . | . | 3 | . | . | 1
CCn1cc(C(=O)NCc2cccnc2)c2cc(OC)c(OC)cc2c1=O | 12 | 5 | -1 | 7 | -17 | i | -5 | -13
O=C(NCc1ccncc1)Nc1ccccc1F | 2 | 4 | 0 | -13 | . | i | 2 | 6
COc1ccc(S(=O)(=O)NC(=O)C2(C)CCN2C(=O)C2CC2)cc1 (centres undefined) | 3 | 11 | . | . | -14 | . | . | -18
O=C(NCCCCNC(=O)c1ccco1)c1ccco1 | -2 | 0 | -12 | -11 | -12 | i | -2 | -1
Nc1ccc(S(=O)(=O)NC(Cc2ccccc2)C(=O)O)cc1 (centres undefined) | -4 | 0 | -2 | -3 | -10 | i | -9 | 2
Cc1csc(NC(=O)CCn2c(=O)sc3ccccc32)n1 | 1 | -4 | -3 | . | -5 | i | -5 | -27
C=CCn1c(-c2cccn(Cc3ccc(Cl)cc3)c2=O)n[nH]c1=S | 8 | -4 | 4 | -11 | -13 | i | 7 | -2
C=CCC(NCc1ccco1)c1ccc(OC)cc1 (centres undefined) | 1 | 7 | -1 | -6 | -8 | i | 1 | -52
CCCCNc1nnc(CCn2nc(C)c(Br)c2C)s1 | 1 | 4 | 9 | -15 | -1 | i | 2 | -11
Cn1c(N)c(C(=O)COC(=O)Cc2ccc(Cl)c(Cl)c2)c(=O)n(C)c1=O | -2 | -4 | . | -2 | -9 | . | . | .
CCc1ccc(-c2nc(CSCC(=O)N3CCN(c4ncccn4)CC3)c(C)o2)cc1 | 0 | -24 | -8 | -9 | 25 | i | -5 | 28

Already shown: entries from further up.
SMILES | MT1-MMP act inh | MT1-MMP act inh RFP | PABP FP inh | CSC inhib | Yeast UUG start | Rce1 inhib | eIF4H FP inh | HIV Env fusion
CC1(C(=O)NS(=O)(=O)c2ccccc2)CCN1C(=O)Cc1cccc2ccccc12 (centres undefined) | -2 | 3 | . | . | 3 | . | . | 1
CCn1cc(C(=O)NCc2cccnc2)c2cc(OC)c(OC)cc2c1=O | 12 | 5 | -1 | 7 | -17 | i | -5 | -13
O=C(NCc1ccncc1)Nc1ccccc1F | 2 | 4 | 0 | -13 | . | i | 2 | 6
COc1ccc(S(=O)(=O)NC(=O)C2(C)CCN2C(=O)C2CC2)cc1 (centres undefined) | 3 | 11 | . | . | -14 | . | . | -18
O=C(NCCCCNC(=O)c1ccco1)c1ccco1 | -2 | 0 | -12 | -11 | -12 | i | -2 | -1
Nc1ccc(S(=O)(=O)NC(Cc2ccccc2)C(=O)O)cc1 (centres undefined) | -4 | 0 | -2 | -3 | -10 | i | -9 | 2
Cc1csc(NC(=O)CCn2c(=O)sc3ccccc32)n1 | 1 | -4 | -3 | . | -5 | i | -5 | -27
C=CCn1c(-c2cccn(Cc3ccc(Cl)cc3)c2=O)n[nH]c1=S | 8 | -4 | 4 | -11 | -13 | i | 7 | -2
C=CCC(NCc1ccco1)c1ccc(OC)cc1 (centres undefined) | 1 | 7 | -1 | -6 | -8 | i | 1 | -52
CCCCNc1nnc(CCn2nc(C)c(Br)c2C)s1 | 1 | 4 | 9 | -15 | -1 | i | 2 | -11
Cn1c(N)c(C(=O)COC(=O)Cc2ccc(Cl)c(Cl)c2)c(=O)n(C)c1=O | -2 | -4 | . | -2 | -9 | . | . | .

The list continues.
SMILES | MT1-MMP act inh | MT1-MMP act inh RFP | PABP FP inh | CSC inhib | Yeast UUG start | Rce1 inhib | eIF4H FP inh | HIV Env fusion
Cc1c(NC2=NC3(CCCCC3)Cc3ccccc32)c(=O)n(C)n1-c1ccccc1 | 0 | 2 | 9 | 6 | . | . | 1 | -91
CC(Oc1ccc2c3c(c(=O)oc2c1)CCCC3)C(=O)NCc1cccnc1 (centres undefined) | 1 | 3 | . | -12 | -15 | i | . | -16
COCCN(C(=O)c1ccc(C#N)cc1)c1c(N)n(Cc2ccccc2)c(=O)[nH]c1=O | -3 | 1 | . | -4 | -3 | . | . | -2
CN(Cc1ccccc1)C(=O)CCNS(=O)(=O)c1ccc2c(c1)oc(=O)n2C | 8 | 2 | 28 | -4 | 0 | i | 0 | 8
COc1cc(-c2cc(=O)c3c(O)c(OC)c(OC)c(OC)c3o2)cc(OC)c1OC | 4 | 1 | -1 | -8 | -7 | i | 1 | .
CCN(CC)CCNC(=O)Cn1nc(Cc2ccccc2)c2ccccc2c1=O | 3 | 1 | -3 | 28 | -18 | i | -6 | .
COCC(=O)N1CCC(Oc2ccc(C(=O)N3CCN(C)C[C@@H]3C(C)C)cc2)CC1 | 1 | 4 | -2 | . | -15 | i | -1 | -3
O=C(c1ccc(Br)cc1)N1CCN(c2ccccn2)CC1 | 1 | 0 | . | . | -11 | . | . | -13
Fc1ccccc1/C=N/Nc1ccc(Cl)nn1 | -4 | 1 | 18 | -2 | -9 | i | -10 | -46
Cc1ccc(NC(=O)Cn2c(=O)oc3ccccc32)c(C)c1 | 5 | 0 | -5 | -12 | 4 | i | 0 | -13
CCOc1ccc(CN(C)CC(=O)Nc2cccc(C)c2)cc1OC | 2 | -13 | 1 | -6 | -2 | i | -10 | 19
Cc1cc(NS(=O)(=O)c2ccc(NC(=O)C(C)Oc3ccc(Cl)cc3)cc2)no1 (centres undefined) | 3 | 1 | -4 | -13 | . | i | -6 | -41
COc1ccc(NC(=O)CN2C(=O)NC(C)(c3ccc4c(c3)OCCO4)C2=O)cc1S(N)(=O)=O (centres undefined) | 2 | 7 | . | -18 | 1 | . | . | .
CCC(Sc1nc(C)cc(C)n1)C(=O)Nc1nccs1 (centres undefined) | 2 | 1 | 9 | 11 | -12 | i | 8 | 1
Cc1cc(Br)c(S(=O)(=O)NCc2ccncc2)cc1C | 6 | -30 | -5 | -16 | -3 | i | -3 | 23
CC(C)Cc1nnc(NC(=O)C2CCN(C(=O)c3ccc(Cl)cc3)CC2)s1 | 1 | -4 | . | -3 | -4 | i | . | -1
Cc1ccccc1SCC(=O)N1CCN(c2ccc(C(F)(F)F)cn2)CC1 | 5 | -7 | . | 14 | -5 | i | . | -14
C/C(=N\NC(=O)c1cc2ccccc2cc1O)c1ccccn1 | 11 | 1 | . | -9 | -50 | i | . | 59*
COc1ccc(F)c(CN2CCC(CO)(Cc3cccc(C(F)(F)F)c3)CC2)c1 | -1 | -3 | -1 | 19 | -12 | i | 1 | 7
COc1ccc(N2CC(C(=O)Nc3cccc(C)n3)CC2=O)cc1 (centres undefined) | -2 | 3 | -5 | -13 | -12 | . | 0 | -5
O=C1c2ccccc2-c2n[nH]c(=O)c3ccc(N4CCCCC4)c1c23 | 7 | -3 | -6 | -6 | -15 | i | -7 | -4
N#C/C(=C/c1ccncc1)c1nc2ccccc2c(=O)[nH]1 | -6 | 6 | 12 | -13 | . | i | 0 | 3
Cc1cc(Cl)ccc1OCCCC(=O)NO | 3 | 1 | -11 | -4 | -14 | i | -13 | .
CCOc1cccc(/C=N/N=C/c2cccc(OCC)c2O)c1O | 3 | 2 | 0 | . | -4 | i | -1 | 16

Source: PubChem (several laboratories)
